PINK1 expr mod – changes PINK1 expression | PINK1 immunofluorescence, high-content cytometry, 24 h | Potency, µM (doses to about 76.6 µM), for the others: top-dose activation (PINK1 increase), actives largely listed as activators | actives 0.2% (n = 410,000); active = well fitted activation curve with a large enough effect; inconclusive = small, poorly fitted or top-dose-only effect; inactive = flat fitted curve, though single readings scatter; cell line not stated here;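 further: potency means the concentration at half of the fitted maximal effect; % of control where 0% means no effect; nearly all actives have a fitted effect of over 65% in size; a mitochondrial uncoupler was the plate control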
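Compound titrations (5 concentrations, 24 h) on a stable cell line; DMSO and CCCP controls. Endpoint: fixed-cell PINK1 immunofluorescence with mitochondrial, cell and nuclear markers, scanned by microplate cytometer.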
D2 agonist – activates the human D2 dopamine receptor | P14416 | DiscoveRx PathHunter D2 beta-arrestin, luminescence, 90 min; 100% = 57 uM dopamine signal | activation, % (no concentration beside the values) | actives 0.084% (n = 360,000) | AID 624465; in the data active = activation above about 40%; inconclusive = about 15% to 40%; inactive = below about 15%; further: compound concentration not given in the record; the text of the record calls up to 30% inactive
Target sequence (P14416 whole entry, looked up): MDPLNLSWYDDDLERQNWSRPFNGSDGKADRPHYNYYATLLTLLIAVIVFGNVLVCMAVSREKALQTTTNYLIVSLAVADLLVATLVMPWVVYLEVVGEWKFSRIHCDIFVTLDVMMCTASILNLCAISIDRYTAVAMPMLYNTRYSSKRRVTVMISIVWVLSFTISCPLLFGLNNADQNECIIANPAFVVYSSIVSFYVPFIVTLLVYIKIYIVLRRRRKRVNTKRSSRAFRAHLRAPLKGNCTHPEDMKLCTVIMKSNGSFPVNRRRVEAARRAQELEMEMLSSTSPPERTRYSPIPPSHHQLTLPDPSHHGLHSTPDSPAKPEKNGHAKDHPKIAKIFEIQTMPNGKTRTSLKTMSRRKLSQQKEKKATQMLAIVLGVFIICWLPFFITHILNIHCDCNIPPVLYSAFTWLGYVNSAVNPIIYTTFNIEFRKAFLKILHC
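Agonist mode: compounds alone added to overnight-plated D2 PathHunter cells for 90 min at 37 C, with 57 uM final dopamine (EC100) defining full response. Beta-arrestin recruitment detected by chemiluminescent reagent, read after 1 h at ambient temperature.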
Sfp PPTase inh – inhibitors of Bacillus subtilis Sfp phosphopantetheinyl transferase; Q9F4F7; Biochemical Sfp PPTase activity, qHTS; Potency, µM, without a hit: max response, negative = inhibition, actives largely listed as inhibitors; actives 3.5% (n = 310,000); AID 1490; active means well fitted inhibition curve with a large enough effect; inconclusive means small, poorly fitted or top-dose-only effect, or another doubt; inactive means no such curve, though single readings can be large or run the other way;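 further: the enzyme is Sfp with the accession as filed and its product quenches rhodamine fluorescence; potency means the concentration at half of the fitted maximal effect; 0% = enzyme reaction without inhibitor and -100% = no enzyme wells; top concentration of the series not given in the record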
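After 15 min at room temperature with compound, 15 nM Sfp received 5 uM rhodamine-CoA plus 12.5 uM BHQ-2-ybbR (50 mM Hepes pH 7.6, 10 mM MgCl2). Rate came from the fluorescence difference over 30 min, ex 525/em 598 nm.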
gsp antagonist – antagonizes gsp, the McCune-Albright syndrome mutation; gsp-mutant cells, cAMP HTRF, 30 min; control for the full effect not named in the record; Potency, µM (titrated, usually from 76.9 µM), inactives show at the highest dose activity change, negative = inhibition, actives largely listed as inhibitors; actives 0.4% (n = 340,000); AID 624288; active = falling curve of any shape with a large fitted effect; inconclusive = falling curve, mostly with a smaller effect; inactive = flat or rising curve; cell line not stated here;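 further: intracellular cAMP measured with PDE inhibitor Ro 20-1724 present during compound exposure; potency means the concentration at half of the fitted maximal effect; on the % scale 0 is the no-effect control and ±100 the full control effect; nearly all actives have a fitted effect of over 65% in size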
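HTRF cAMP read-out (cAMP-d2 plus anti-cAMP antibody-K in lysis buffer, 30 min RT). Before lysis, cells are exposed to compounds with […] for 30 min at 37C in DPBS containing Ca/Mg, BSA and Tween 20.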
Menin MLL FP FL – displaces fluorescein MLL peptide from human menin | Fluorescence polarization, fluorescein-MLL peptide displacement from menin | FP activity change, % at 61.4 µM | 290,000 tested, under 10 active | AID 1766; inconclusive = falling polarisation curve, or a change in total fluorescence; inactive = total fluorescence flat and polarisation flat or rising; no compound was filed as active; the % refers to the polarisation; negative = inhibition;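 further: % of control where 0% means no effect; inhibitors lower the polarisation; unlabelled MLL peptide was the positive control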
ClpP mod – qHTS Assay for Activators of ClpP. AID 651965, 2013. actives 1.9% (n = 340,000). purified B. subtilis ClpP, FRET peptide cleavage, 20 min. Potency, µM (top dose mostly 57.5 µM), without a hit: at the top dose activity change, negative = active. ATP-dependent Clp protease proteolytic subunit (Bacillus subtilis (strain 168)), P80244; active = well fitted falling curve with a large enough effect; inconclusive = small, poorly fitted or top-dose-only effect; inactive = no such curve, though single readings can be large or run the other way; further: potency means the concentration at half of the fitted maximal effect; the source files actives as falling curves though it sought activators and does not explain the sign; nearly all actives have a fitted effect of over 65% in size; many hits overshoot -100%
Target sequence (P80244 whole entry, looked up): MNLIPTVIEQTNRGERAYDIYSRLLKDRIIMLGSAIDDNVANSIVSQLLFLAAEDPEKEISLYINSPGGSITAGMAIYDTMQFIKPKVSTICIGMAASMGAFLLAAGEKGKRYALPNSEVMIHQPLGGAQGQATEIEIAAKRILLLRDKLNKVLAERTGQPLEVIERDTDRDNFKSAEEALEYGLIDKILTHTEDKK
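FRET quenching reversal measured ClpP activation: 10 microg/mL B. subtilis ClpP at pH 8 with the FRET-FV decapeptide, read at 430 nm after 320 nm excitation. The 20-min minus 0-min signal was scaled between DMSO/no-enzyme wells and ADEP (5.8 microM final).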
gsp ag – agonists of gsp mutant (McCune-Albright syndrome); AID 624287; gsp mutant cells, cAMP HTRF, 30 min; control for the full effect not named in the record; actives 0.13% (n = 340,000); Potency, µM (series often up to 76.9 µM), for inactives: at the top dose activation (cAMP increase), actives largely listed as activators; active = well fitted activation curve with a large enough effect; inconclusive = small, poorly fitted or top-dose-only effect, or another doubt; inactive = no such curve, though single readings can be large or run the other way; cell line not stated here;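 further: phosphodiesterase inhibitor Ro 20-1724 added with compounds to block cAMP breakdown; potency means the concentration at half of the fitted maximal effect; nearly all actives have a fitted effect of over 60% in size; about a fifth of the inactives were tested at one dose only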
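Cells stably selected in G418 were plated at 2000/well, grown 16-24 hr, then given compounds in DMSO with the PDE inhibitor […] (300 uM solution added) for 30 min at 37C; cAMP was read by HTRF.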
* hit, by the source's call; ? = inconclusive; / = not tested or not shown; & = joins results of further samples; [ ] = dose if it differs, or a comment.

SMILES	PINK1 expr mod	D2 agonist	Sfp PPTase inh	gsp antagonist	Menin MLL FP FL	ClpP mod	gsp ag
O=C(Nc1cccs1)Nc1ccc(F)cc1F	-1.2%&-1.4%	2.2	-11%	-17%	1.3	-4.7%&-0.9%	-9%[15.4 µM]
CC1CCCC(C)N1C(=O)COC(=O)CNC(=O)c1ccccc1F (stereo not drawn)	1.0%	-7.2	/	-4%	/	1.9%	-52%[inhibitor]
CN(C)S(=O)(=O)c1cc(NC(=O)COC(=O)CC2CC3CCC2C3)ccc1Cl (stereo not drawn)	1.1%	-0.1	/	-7%	/	-2.7%	-17%
O=C(COc1ccc(S(=O)(=O)N2CCCC2)cc1Cl)NCc1ccc2c(c1)OCO2	-2.6%	-1.3	-1%	-22%	5.3	-1.6%	9%
O=C(N/N=C/c1c[nH]c2ccccc12)c1cccc([N+](=O)[O-])c1	0.1%	-0.5	6%	-16%	6.6	-1.5%	16%
CCC1(c2ccccc2)NC(=O)N(CC(=O)NCc2ccc(F)cc2)C1=O (stereo not drawn)	-0.1%	-3.6	17%	2%	5.7	/	10%
O=C(NNS(=O)(=O)c1ccc(Cl)cc1)c1cccc(S(=O)(=O)N2CCOCC2)c1	-2.1%	-4.6	2%	3%	4.3	-1.9%	1%
CC(C)NC(=O)Nc1cccs1	0.7%	-1.0	79µM*	-18%	?	-0.4%	-16%
COc1ccccc1C(=O)N1CCN(Cc2ccc3c(c2)OCO3)CC1	1.2%	-5.0	16%	-6%	-0.2	1.0%	-5%
Cc1c(C(=O)NCc2ccoc2)oc2ccc3c(c12)C(=O)CC(C)(C)O3	3.0%	-0.7	?	-32%	-2.8	28µM*	3%
Cc1ccc(OC(C)C(=O)N/N=C/c2ccccn2)cc1 (stereo not drawn)	0.0%	-2.0	-55%	8%	-2.9	-2.2%	1%
O=C(NNC(=S)Nc1ccc(F)cc1)c1ccccc1OC(F)F	-5.9%[38.3 µM]	-6.0	-3%	-24%	0.8	3.8%	-39%[inhibitor]
CCOC(=O)Cn1nc(C)c(NC(=O)COc2ccc(OC)cc2)c1C	-0.1%&1.0%	-0.8	19%	9%	-2.8	-0.1%	-2%[15.4 µM]
CC(=O)Nc1ccc(S(=O)(=O)NCC(=O)OCC(=O)N2CCc3ccccc32)cc1	-0.9%	-4.9	12%	5%	0.1	-3.1%	17%
Cc1cccc(OCc2nnc(SCCC(=O)O)n2-c2ccccc2)c1	-1.0%	4.7	50µM*	2%	0.9	-1.8%	-6%
COCCN1CCN(C(=O)c2cc(COc3ccc(F)cc3F)on2)CC1	-0.1%	-9.0	7%	7%	-4.9	-4.8%	-17%[15.4 µM]
O=C(Nc1cccnc1Cl)c1ccc(=O)oc1	1.3%	0.8	?	-3%	?	/	-45%[inhibitor]
COc1ccc(/C(N)=N/OC(=O)CC2CCCCC2)cc1	6.6%	3.9	2%	6%	/	0.9%	-3%[15.4 µM]
Nc1c(Cl)cc(-c2[nH]c3cc(C(=O)NCCO)ccc3c(=O)c2O)cc1Cl	1.5%	3.3	16%	18%	?	-16%	?
COc1cc(NC(=O)c2ccc3c(c2)OCCO3)ccc1NC(=O)c1ccco1	-0.1%	-3.8	13%	4%	-3.0	/	14%
Cc1cccc(NC(=O)C2NC(=O)CC2c2ccccc2)c1C (stereo not drawn)	5.1%	-1.3	-2%	5%	4.7	-0.4%	?
CCn1nc(NS(=O)(=O)c2ccc(NC(C)=O)cc2)c2cc3cc(C)ccc3nc21	0.3%	-14	19%	-17%	/	-3.3%	20%
CCOC(=O)N1CCC(NS(=O)(=O)c2ccc(C)cc2)CC1	0.6%	3.1	4%	-17%	-5.4	1.1%	-25%[15.4 µM]
COc1ccc2cc(CCNC(=O)c3cccc([N+](=O)[O-])c3)c(=O)[nH]c2c1	-1.7%	-1.7	-14%	-10%	-2.2	-1.7%	-44%[inhibitor]
O=C(O)c1ccnc(C(=O)O)c1	4.0%[38.3 µM]	-1.1	35µM*	10%	-1.1	1.8%	35%

Other entries
SMILES	PINK1 expr mod	D2 agonist	Sfp PPTase inh	gsp antagonist	Menin MLL FP FL	ClpP mod	gsp ag
CC(=O)Nc1c(Cl)cc2c(c1Cl)Cc1cc(N)ccc1-2	1.0%	-2.5	/	-16%	/	2.0%	-44%[inhibitor]
O=C(NCC(c1ccco1)N1CCc2ccccc21)c1ccccc1Cl (stereo not drawn)	0.8%	-2.1	/	-23%	/	-0.7%	-43%[inhibitor]
O=C(COC(=O)c1ccc2c(c1)OCCO2)NCc1ccc(Cl)cc1	10%	1.7	/	/	/	-5.9%	?
O=C(O)c1cccc(S(=O)(=O)Nc2ccccc2Cl)c1	-1.3%	-1.7	4%	10%	-1.5	-0.7%	-3%
COc1ccc(CCNC(=O)CCc2ccccc2O)cc1OC	-0.3%	-6.5	/	2%	/	/	-17%[15.4 µM]
CCCn1c2c(c(O)c(C(=O)NCc3ccccc3)c1=O)CCCC2	2.2%	-2.0	-9%	-25%	2.1	?	27%
O=C(CCc1nc2ccccc2s1)N1CCN(c2ccccc2)CC1	1.3%	-2.4	21%	-13%	-0.8	-1.2%	-9%
CC1(C(=O)NS(=O)(=O)C2CC2)CCCN(C(=O)c2ccc(F)cc2Cl)C1 (stereo not drawn)	0.0%	-6.7	/	/	/	1.8%	/
Cc1ccc(C(C)(C)C)c(OCCCn2ccnc2)c1	-1.5%	-3.1	-14%	0%	0.1	-1.1%	9%[15.4 µM]
CS(=O)(=O)N1CCC(C(=O)Nc2ccc(C(F)(F)F)cc2)CC1	1.4%	1.5	16%	0%	-5.0	/	14%[15.4 µM]
CCCOc1ccc(CNC(=O)c2ccc3nc(N4CCOCC4)sc3c2)cc1	12%	-8.2	10%	-5%	6.1	-0.4%	?
CC(=O)OCCCNc1cc(Sc2ccc(Cl)cc2)c2nonc2c1[N+](=O)[O-]	-2.7%	-0.3	50µM*	-4%	?	-2.4%	-3%
Cc1ccc(OCCCC(=O)NC(C)c2ccccc2)cc1 (stereo not drawn)	-1.7%	-3.2	-9%	-17%	3.1	1.1%	14%
CCCCNC(=O)C(C#N)c1nc2ccccc2nc1N1CCN(Cc2ccc3c(c2)OCO3)CC1 (stereo not drawn)	?	-2.1	/	10%	/	-2.0%	24%
CCC(C)C(=O)N1CCCC(c2nc(-c3cccs3)no2)C1 (stereo not drawn)	-1.4%	-2.1	23%	-7%	2.8	0.3%	1%
Cc1ccc(Cc2nc(-c3ccncc3)no2)cc1	-1.4%	0.3	-1%	1%	0.7	2.0%	9%
CCOC(=O)C1=C(CC)Nc2ccccc2N=C1NC(=O)c1ccc(S(=O)(=O)N(C)C)cc1	-0.8%	0.7	11%	-13%	0.1	-3.1%	-62%[inhibitor]
O=C(c1ccco1)N1CCN(CC(=O)N(C2CCCCC2)C2CCS(=O)(=O)C2)CC1 (stereo not drawn)	-0.5%	-0.9	-2%	-5%	2.4	0.6%	-27%
COc1ccc(C2(NC(C)=O)CCN(C(=O)c3cccs3)CC2)cc1	-0.8%	-1.6	30%[activator]	16%	1.2	0.1%	-56%[inhibitor]
Cc1ccc(S(=O)(=O)NCCC(=O)N2CCC(C(N)=O)CC2)cc1C	0.3%	-0.1	/	8%	/	-1.5%	?
O=C(CSc1cccc[n+]1[O-])Nc1ccc([N+](=O)[O-])cc1Cl	1.3%	5.6	14%	-9%	-0.4	0.3%	8%[15.4 µM]
Cc1ccc(C(=O)CCC(=O)Nc2cc(C)ccn2)cc1	-0.4%	-7.3	/	4%	/	1.5%	-33%[inhibitor]
CC(=O)N(CCC1(C(C)C)CCOC(C)(C)C1)Cc1ccco1 (stereo not drawn)	26%[38.3 µM]	0.1	-7%	-5%	6.1	0.9%	12%
CCCCN(CC(=O)NC(C)(C)C)C(=O)C(=O)Nc1ccc2c(c1)OCCO2	0.5%	-0.2	6%	-12%	-2.0	-0.9%	15%[15.4 µM]
CCn1cc(S(=O)(=O)Nc2ccc3c(c2)OCCO3)cn1	-0.2%	0.8	10%	/	0.2	/	7%[15.4 µM]

Further records follow.
SMILES	PINK1 expr mod	D2 agonist	Sfp PPTase inh	gsp antagonist	Menin MLL FP FL	ClpP mod	gsp ag
NC(=O)c1ccccc1OC1CCC1	-0.2%	3.1	22%	7%	0.2	/	13%[15.4 µM]
CC[C@@]1(C(=O)OC)N[C@H](CN(C)C(=O)Nc2ccc(C)cc2)[C@@H]2C(=O)N(Cc3ccccc3)C(=O)[C@@H]21	0.3%	-2.3	/	2%	/	0.5%	/
O=S(=O)(c1ccc(Cl)nc1)N1CCCCC1	0.1%	-3.9	16%	3%	1.9	/	11%[15.4 µM]
COc1ccc(C(=O)NCC(=O)Nc2ccc(-c3ccccc3)cc2)cc1	4.6%	-3.5	0%	4%	3.5	/	-19%[15.4 µM]
CCOC(=O)C(=CNc1ccc(N2CCCCC2)c(S(=O)(=O)Nc2ccccc2OC)c1)C(=O)OCC	2.8%	-2.5	/	5%	/	18µM*	20%
Cc1cccc(C)c1NC(=O)CCCSc1nc2ccccc2s1	8.0%	-3.4	10%	-7%	1.2	-5.2%	13%
O=C(c1cccc(S(=O)(=O)N2CCOCC2)c1)N(CCc1ccccc1)Cc1ccccc1	-0.8%	8.8	/	?	/	0.8%	-9%
Cc1cc(C)c(C#N)c(Cl)n1	1.3%	-1.5	6%	15%	5.1	0.4%	-21%
COC(=O)c1ccc(CNC(=O)CSC(C)C(=O)Nc2cc(C)on2)cc1 (stereo not drawn)	-1.5%	-4.1	/	11%	/	0.9%	-21%
COCCn1c(=O)c(-c2ccccc2)nc2cnc(Nc3ccccc3)nc21	0.6%	/	32%[activator]	/	0.1	/	/
N#C/C(=C\c1c(F)cccc1Cl)c1nn(-c2ccccc2)c(-n2cccc2)c1C#N	-0.2%	2.6	0%	-6%	2.6	/	12%[15.4 µM]

Screens from PubChem BioAssay.
